H5N1 antiviral: MDCK cell protection from H5N1 avian flu; actives 0.07% (n = 96,000); inhibition, % at 50 µM; cytopathic effect, luminescence, 72 h; stronger effect = higher value; no value below 0 was filed and about half of the inactive calls have no number; reference of the scale not given here; AID 740, 2007; in the data active = inhibition above about 25%
Active calls of the source: *; i = inactive.

no. | molecule | H5N1 antiviral
1 | O=C(c1cccc(C(=O)N2CCN(c3ccc(F)cc3)CC2)c1)N1CCN(c2ccc(F)cc2)CC1 | i
2 | CCCCN(C)CCNC(=O)Cn1c(=O)sc2ccccc21 | 1.4
3 | CCOC(=O)c1c(C)n(C)c2ccc(OC)c(NC(=O)CN3CCC4(CC3)OCCO4)c12 | 0.5
4 | COc1ccc2cc(S(=O)(=O)N3CCN(C)CC3)ccc2c1 | 0.3
5 | O=C(NC1CCCCC1)N(Cc1ccc(F)cc1)Cc1nc2ccccc2c(=O)[nH]1 | i
6 | O=C(NCC1CCCO1)C1CCN(S(=O)(=O)Cc2ccccc2)CC1 (stereo unspecified) | 0.5
7 | COc1cccc(-c2nc(-c3ccccc3)no2)c1 | i
8 | Cc1c(C(=O)O)sc2ncnc(N3CCCCC3C)c12 (stereo unspecified) | 0.7
9 | Cc1cc(NC(=O)CSc2ccc3nnc(-c4ccc(F)cc4)n3n2)no1 | 0.2
10 | Cc1cc(C)cc(SCc2noc(C(=O)NC(C)C)c2C(=O)O)c1 | i
11 | CC(C)CC(NC(=O)c1ccco1)C(=O)Nc1ccc2c(c1)OCCO2 (stereo unspecified) | 0.3
12 | CC(C)CNC(=S)NNC(=O)c1csc2c1CCC(C)C2 (stereo unspecified) | i
13 | CC1CCc2nn(CC(=O)NC3CCCC(C)C3C)cc2C1 (stereo unspecified) | i
14 | CCC(=O)Nc1ccc(NC(=O)CSc2nnc(C(C)C)n2C)cc1 | i
15 | CC(C)(C)C(=O)Nc1nnc(CSCc2ccccc2F)s1 | 1.1
16 | Cc1nc(SCC(=O)c2cccc([N+](=O)[O-])c2)n[nH]1 | 1.3
17 | O=C(CSc1nc2ccccc2c(=O)n1Cc1ccccc1)NCc1ccco1 | 1.7
18 | COc1cccc(Nc2cc(N3CCOCC3)c3nonc3c2[N+](=O)[O-])c1 | 2.2
19 | Cc1nnc(NC(=O)c2ccccc2F)s1 | 2.0
20 | Cc1ccc(C(CC(=O)N2CCCC2)c2ccccc2)c(O)c1C (stereo unspecified) | 1.2
21 | OCc1ccccc1N=c1ssnc1Cl | i
22 | COc1ccccc1OCC(=O)NCCc1nc2ccccc2[nH]1 | 0.4
23 | CCOC(=O)c1oc2ccccc2c1NC(=O)COc1ccc(F)cc1 | 0.7
24 | O=C(NCc1ccco1)c1ccc2c(c1)C(=O)N(C1CCCCC1)C2=O | 0.7
25 | O=C(NCCCN1CCN(c2cccc(Cl)c2)CC1)c1cccc(N2CCCC2=O)c1 | i
26 | COc1cc(NC(=O)C2CC2)c(C(=O)O)cc1OC | i
27 | O=C(Nc1ccccc1)N1CCC(c2ccccc2)C1 (stereo unspecified) | 0.3
28 | O=C1NN(c2ccccc2)C(=O)C2C3C=CC(C4CC34)C12 (stereo unspecified) | i
29 | CC(C)Oc1ccc(C2c3c(oc4ccccc4c3=O)C(=O)N2CCCN2CCOCC2)cc1 (stereo unspecified) | 0.8
30 | CCOc1ccc(C2CC(c3cccc(Cl)c3)n3nc(N)nc3N2)cc1 (stereo unspecified) | i
31 | COc1ccccc1C(=O)CSc1n[nH]c(N)n1 | 1.0
32 | CCN(CC)c1ccc(C2N(C(=O)N3CCOCC3)CCN2S(=O)(=O)c2ccc(C)cc2)cc1 (stereo unspecified) | i
33 | CCOC(=O)Cn1c(=O)oc2cc(S(=O)(=O)Nc3ccc(N(CC)CC)cc3C)ccc21 | i
34 | CCOC(=O)C(=O)/C(C#N)=C/Nc1ccccc1 | 0.4
35 | Cc1cc(Cl)c(S(=O)(=O)N/N=C/c2ccc3c(c2)OCO3)c(Cl)c1 | 0.6
36 | O=C(NCc1cccnc1)c1ccc(Cl)c(Cl)c1 | i

Down the list, from the results shown.
H5N1 antiviral for entries 25–33: i, i, 0.3, i, 0.8, i, 1.0, i, i

Next section:
no. | molecule | H5N1 antiviral
37 | CCSc1nnc([C@@H]2CCCN2C(=O)OC(C)(C)C)o1 | i
38 | Cc1cccc(N(CC(=O)N2CCOCC2)S(C)(=O)=O)c1 | 0.2
39 | CCOC(=O)C1=C(CSc2nnnn2C)N(C)C(=O)NC1c1ccccc1 (stereo unspecified) | 1.1
40 | Fc1cccc(Cl)c1-c1nnc2ccc(N3CCOCC3)nn12 | 0.0
41 | O=C(NCC1CC1)C1CCCN(S(=O)(=O)c2ccc(-n3cnnn3)cc2)C1 (stereo unspecified) | 0.6
42 | C=CCSc1nnc(NC(=O)CSc2nnc(C)s2)s1 | 0.1
43 | CCC(C)(C)NCC(=O)Nc1ccc(OC(F)(F)F)cc1 | i
44 | CCOC(=O)C1CCCN(Cc2nc(N)nc(Nc3ccc(OC)cc3)n2)C1 (stereo unspecified) | 1.0
45 | CCCS(=O)(=O)N1CCCC(C(=O)NCCCOC(C)C)C1 (stereo unspecified) | i
46 | C=CCn1c(O)c(C(C)=NCc2ccco2)c(=O)[nH]c1=O | 2.9
47 | N#C/C(=C/c1ccc(Cl)cc1)NC(=O)c1ccccc1 | i
48 | O=C(Nc1ccc(Br)cc1)C1CCCN1S(=O)(=O)c1cccs1 (stereo unspecified) | i

Rewritten field by field: part of the list above
[14] CCC(=O)Nc1ccc(NC(=O)CSc2nnc(C(C)C)n2C)cc1
  H5N1 antiviral = i
[18] COc1cccc(Nc2cc(N3CCOCC3)c3nonc3c2[N+](=O)[O-])c1
  H5N1 antiviral = 2.2
[35] Cc1cc(Cl)c(S(=O)(=O)N/N=C/c2ccc3c(c2)OCO3)c(Cl)c1
  H5N1 antiviral = 0.6
[34] CCOC(=O)C(=O)/C(C#N)=C/Nc1ccccc1
  H5N1 antiviral = 0.4

(cont.)
no. | molecule | H5N1 antiviral
49 | CSc1nc2ccc(S(=O)(=O)N3CCOCC3)cc2s1 | 0.6
50 | Cc1ccc(-c2noc(-c3ccccc3C(=O)N3CCCC3)n2)cc1 | 1.3
51 | O=C(COc1ccc(Br)cc1CO)Nc1ccc(F)cc1 | 0.7
52 | COc1ccc(CCNC(=O)C2CCN(c3nn4c(=O)cc(C)nc4s3)CC2)cc1OC | i
53 | Cc1cccc(Oc2ccc(C(=O)NC3CCSC3=O)cn2)c1C (stereo unspecified) | 0.1
54 | CC(=O)N1CCc2cc(S(=O)(=O)N3c4ccccc4CC3C)ccc21 (stereo unspecified) | i
55 | COc1cc2c(cc1OC)C1=C(C#N)CN(CC(=O)O)CN1CC2 | i
56 | CCN=C(NCC)SC1CC(=O)N(c2cccc(OC)c2)C1=O (stereo unspecified) | i
57 | CC#CCNCc1ccccc1 | i
58 | Clc1cc(NCc2cccs2)ccc1N1CCOCC1 | i
59 | CCCS/C(N)=N/N=C/c1ccccc1O | i
60 | O=C(CC1NC(=O)NC1=O)Nc1ccccc1 (stereo unspecified) | 1.5

The list continues:
nr	Compound	H5N1 antiviral
61	O=C1CN(C(=O)CCN2CCOCC2)C(c2ccccc2)c2cc(Br)ccc2N1 (stereo unspecified)	1.1
62	COC(=O)c1c(C)n(-c2ccccc2)c2ccc(O)cc12	1.8
63	O=C(/C=C/c1ccccc1)N/C(=C/c1ccccc1)C(=O)Nc1ccccc1O	i
64	COc1ccc(CCNC(=O)C2CCCN2C(=O)Nc2cccc(C(C)=O)c2)cc1OC (stereo unspecified)	i
65	CCc1nnc(NC(=O)C(C)N2C(=O)C3C4C=CC(C4)C3C2=O)s1 (stereo unspecified)	1.3
66	Cc1onc(-c2ccccc2)c1C(=O)Nc1sc2c(c1C(N)=O)CCC2	i
67	O=C(CSc1nc2ccccc2c(=O)n1Cc1ccc(C(=O)NC2CC2)cc1)NCc1ccco1	0.9
68	COc1ccc(C(=O)C2(C)N(O)C(C)C(c3cccs3)=[N+]2[O-])cc1 (stereo unspecified)	1.5
69	CCCc1[nH][nH]c(=O)c1C(c1ccccc1)C(C#N)C#N (stereo unspecified)	i
70	CCCCCn1c(CN2CCN(CCO)CC2)nc2c1c(=O)n(C)c(=O)n2C	2.7
71	CC(=O)NCC(=O)N(C)C(C(=O)Nc1ccc(C(C)C)cc1)c1ccccc1 (stereo unspecified)	i
72	C=CCNC(=O)C(C)N1C(=O)c2ccccc2C1=O (stereo unspecified)	0.7
73	N#C/C(=C\c1ccc[nH]1)C(=O)NC1CC1	0.0
74	CCOc1cc(S(=O)(=O)NCCN2CCOCC2)c(C)cc1C	i
75	COc1cc2[nH]c(=S)n(CCN3CCCCC3C)c(=O)c2cc1OC (stereo unspecified)	0.9
76	O=C(NCc1ccc(F)cc1)c1cnc2n(c1=O)CCS2	0.3
77	Cc1ccc(OCC(=O)NNC(=O)CCC(=O)Nc2ccc(C)cc2C)cc1	i
78	O=C(CCN(CCO)Cc1ccccc1)Nc1ccc(Br)cc1	i
79	N#Cc1c2c(c(=S)n(-c3ccccc3)c1N)CCCC2	2.1
80	CCSc1nnc(NC(=O)c2cccs2)s1	i
81	O=C(c1coc2ccc(O)c(CN3CCOCC3)c12)C1CC1	3.5
82	CCNc1nc(NC(C)C)nc(NS(=O)(=O)c2ccc(N)cc2)n1	i
83	O=C(COC(=O)C1CC(=O)N(C2CCCCC2)C1)c1ccc(F)cc1 (stereo unspecified)	i
84	CCOC(=O)Cc1csc(NC(=O)c2ccc(OC)c(OC)c2)n1	i
85	O=c1c(/C=N/O)c(Nc2ccccc2)nc2ccccn12	1.5
86	Cc1ccc(S(=O)(=O)N(CC(=O)NCCC2=CCCCC2)Cc2ccccc2F)cc1	i
87	Cc1csc(Sc2nc3c(c(=O)[nH]c(=O)n3C)n2CCCc2ccccc2)n1	0.3
88	COc1cc(C)c(Br)cc1S(=O)(=O)N1CCOCC1	0.3
89	Cc1noc(C)c1CSc1nc2sc3c(c2c(=O)n1C)CCCC3	0.4
90	COCCCNc1ncnc2c1cnn2-c1ccc(C)cc1C	i
91	CCOCC(=O)Nc1ccc(S(=O)(=O)NCCc2ccccc2)cc1	0.8
92	COc1cc(C)ccc1OCCOc1ccccc1Cl	1.7
93	COc1ccccc1N1CCN(Cc2ccc(O)c3ncccc23)CC1	i
94	O=C(Nc1cc(=O)[nH]c2ncnn12)c1ccccc1	i
95	Nc1c(S(=O)(=O)c2cccs2)c2nc3ccccc3nc2n1Cc1cccs1	i
96	FC(F)(F)c1cccc(NC(=S)NCCc2ccccn2)c1	i
97	O=C(Oc1cccc2c(OC(=O)N3CCOCC3)cccc12)N1CCOCC1	0.9
98	CC(C)(C)c1ccc(OCCON2C(=O)CCC2=O)c(Cl)c1	i
99	CCOC(=O)NC1(Nc2ccc(Cl)cn2)Oc2ccccc2O1	i
100	N#CC(c1ccccc1F)(c1ncc(C(F)(F)F)cc1Cl)N1CCOCC1 (stereo unspecified)	i
101	Cc1cccc(NC(=O)c2cc(NC(=O)CCCC(=O)O)ccc2Cl)n1	i
102	Cc1c(S(=O)(=O)N2CCN(C(=O)c3ccco3)CC2)c(=O)n(C)c(=O)n1C	0.4
103	O=C(O)c1ccc(NS(=O)(=O)c2cccc3cccnc23)cc1	1.3
104	O=c1c2ccccc2nc(N2CCN(c3ccccc3)CC2)n1Cc1ccccc1	0.4
105	COc1ccc(CCNC(=O)C2CCN(S(=O)(=O)N3CCCCC3)CC2)cc1OC	i
106	CCCn1nc(Oc2nc(SC)nc(N(C)C)n2)ccc1=O	0.6
107	Brc1ccc(-c2ncc(-c3ccccc3)cn2)cc1	0.1
108	CCN(CC)Cc1cc(C(C)=O)ccc1OCC(C)C	i
109	CC(C)c1ccc(-c2noc(C3CCCN(S(C)(=O)=O)C3)n2)cc1 (stereo unspecified)	3.5
110	COc1ccc(N2CCN(S(=O)(=O)c3ccc(Cl)c(C(F)(F)F)c3)CC2)cc1	1.1

Of the compounds above, two contain a nitro group on carbon.
nr	Compound	H5N1 antiviral
16	Cc1nc(SCC(=O)c2cccc([N+](=O)[O-])c2)n[nH]1	1.3
18	COc1cccc(Nc2cc(N3CCOCC3)c3nonc3c2[N+](=O)[O-])c1	2.2

(next part)
nr	Compound	H5N1 antiviral
111	CCn1nnc(NC(=O)C(C)Oc2ccc(Cl)cc2Cl)n1 (stereo unspecified)	0.1
112	Cc1cnc(NC(=O)CSc2ncc(-c3ccccc3)n2Cc2ccco2)s1	i
113	CCCn1nc(NC(=O)c2ccncc2)c2cc3ccccc3nc21	0.1
114	COc1ccc(/C=C(/NC(=O)c2ccccc2)C(=O)N/N=C/c2ccc3c(c2)OCO3)cc1OC	0.4
115	CC1CCC(NC(=O)c2cnccn2)CC1 (stereo unspecified)	i
116	Cc1[nH]n(C(C)(C)C)c(=O)c1Sc1ccc(Cl)cc1	0.2
117	CCc1c(C)c2c(C)nn(-c3ccccc3)c2[nH]c1=O	i
118	Cc1cc2cc3c(cc2nc1SCC(=O)O)OCCO3	i
119	CCOc1ccc(OCC)c(NC(=O)C2CCN(S(=O)(=O)c3c(C)noc3C)CC2)c1	i
120	O=c1[nH]c(=O)n(CCc2ccccc2)c(O)c1C=NCCN1CCNCC1	0.5
121	Clc1ccc(C2Nc3ccccc3-n3cccc32)cc1 (stereo unspecified)	i
122	Cn1c(N)c(C#N)c2c(c1=S)COC(C)(C)C2	i
123	O=C(CN(c1ccccc1)S(=O)(=O)c1ccccc1[N+](=O)[O-])NN=C1CCCCCCC1	0.5
124	Cn1c(SCc2ccc(C#N)cc2Cl)nc2ccccc21	2.0
125	CCn1c(=NC(=O)CSCC(=O)Nc2nccs2)sc2ccccc21	0.1
126	CCCC(C(=O)c1ccccc1)n1cncn1 (stereo unspecified)	0.1
127	Cc1ccc(-c2nnc(N3CCN(C(=O)COc4ccccc4)CC3)c3ccccc23)cc1	i
128	COc1ccc2c(c1)nc(N)n2Cc1ccccc1	i
129	CCS(=O)(=O)N1CCN(C(=O)c2cccnc2)CC1	i
130	CSc1ccccc1NC(=O)CSCc1ccc(C)cc1	i
131	O=c1c2ccccc2c(/C=N/n2cnnc2)c(O)n1-c1ccccc1F	0.5
132	Cc1ccc(N(CC(=O)Nc2cccc(N(C)S(C)(=O)=O)c2)S(C)(=O)=O)cc1	i
133	O=C(NCc1ccco1)c1ccc(Cn2c(=O)c3ccccc3n(Cc3ccc(Cl)cc3)c2=O)cc1	i
134	Cc1ccc(C(=O)N2CCCCCC2)cc1Br	i
135	COc1ccc(-n2nnnc2SCC#CCO)cc1	i
136	Cc1ccccc1-n1c(=O)cc(N2CCN(Cc3ccccc3)CC2)[nH]c1=O	i
137	CCC(=O)NC(=S)Nc1ccc(Cl)cn1	i
138	COc1nc(Oc2ccc(=O)[nH]n2)nc(N2CCOCC2)n1	2.1
139	CC1CC(C)CN(CCOc2ccc(Cl)cc2Cl)C1 (stereo unspecified)	i

Retrieved by structure from the entries so far (2):
nr	Compound	H5N1 antiviral
135	COc1ccc(-n2nnnc2SCC#CCO)cc1	i
98	CC(C)(C)c1ccc(OCCON2C(=O)CCC2=O)c(Cl)c1	i

A portion of the library (hit frequency here may not be typical).
